Source: PubChem
gsp ag = qHTS for Agonist of gsp, the Etiologic Mutation Responsible for Fibrous Dysplasia/McCune-Albright Syndrome: qHTS | gsp mutant cells, cAMP HTRF, 30 min; control for the full effect not named in the record | Potency, µM (highest dose often 76.9 µM), without a hit: top-dose activation (cAMP increase), most hits filed as activators | 0.13% of 340,000 active | AID 624287, 2012; active = well fitted activation curve with a large enough effect; inconclusive = small, poorly fitted or top-dose-only effect, or another doubt; inactive = no such curve, though single readings can be large or run the other way; cell line not stated here;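 also: phosphodiesterase inhibitor Ro 20-1724 added with compounds to block cAMP breakdown; potency is read from the fitted curve at half-maximal effect; nearly all actives have a fitted effect of over 60% in size; about a fifth of the inactives were tested at one dose only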
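Cells in DMEM/10% FBS with G418 were pretreated with compounds in DMSO plus […] (300 uM stock) for 30 min at 37C. cAMP was measured by HTRF (cAMP-d2 plus anti-cAMP antibody-K) after 30 min at room temperature.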
ClpP mod = qHTS Assay for Activators of ClpP; ATP-dependent Clp protease proteolytic subunit (Bacillus subtilis (strain 168)), P80244; purified B. subtilis ClpP, FRET peptide cleavage, 20 min; 1.9% of 340,000 active; Potency, µM (doses to about 57.5 µM), inactives show at the highest dose activity change, negative = active; active = well fitted falling curve with a large enough effect; inconclusive = small, poorly fitted or top-dose-only effect; inactive = no such curve, though single readings can be large or run the other way; also: potency is read from the fitted curve at half-maximal effect; the source files actives as falling curves though it sought activators and does not explain the sign; nearly all actives have a fitted effect of over 65% in size; many hits overshoot -100%
Target sequence (P80244 whole entry, looked up): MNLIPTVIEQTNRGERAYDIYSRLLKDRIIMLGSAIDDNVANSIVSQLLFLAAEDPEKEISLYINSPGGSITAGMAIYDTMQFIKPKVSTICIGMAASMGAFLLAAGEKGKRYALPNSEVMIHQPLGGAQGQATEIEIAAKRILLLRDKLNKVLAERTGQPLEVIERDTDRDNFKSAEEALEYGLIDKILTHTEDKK
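Purified B. subtilis ClpP, 10 microg/mL final in Tris/HCl pH8 with KCl, BSA, glycerol and Tween-20, cleaved an Abz/nitrotyrosine-quenched decapeptide. Fluorescence (ex 320, em 430) was read at 0 and 20 min at room temperature. Delta was normalized to 5.8 microM ADEP and DMSO/no-enzyme controls.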
Menin-MLL FL inh = qHTS Assay for Inhibitors Targeting the Menin-MLL Interaction in MLL Related Leukemias: Competition With Fluorescein Labeled MLL-derived Peptide | 290,000 tested, under 10 active | FP activity change, % at 61.4 µM | Fluorescence polarization, fluorescein-MLL peptide displacement from menin; inconclusive = falling polarisation curve, or a change in total fluorescence; inactive = total fluorescence flat and polarisation flat or rising; no compound was filed as active; the % refers to the polarisation; negative = inhibition;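 also: % of control where 0% means no effect; inhibitors lower the polarisation; unlabelled MLL peptide was the positive control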
gsp antagonist = qHTS for Antagonists of gsp, the Etiologic Mutation Responsible for Fibrous Dysplasia/McCune-Albright Syndrome: qHTS. 0.4% of 340,000 active. Potency, µM (series often up to 76.9 µM), without a hit: at the highest dose activity change, negative = inhibition, actives largely listed as inhibitors. gsp-mutant cells, cAMP HTRF, 30 min; control for the full effect not named in the record. AID 624288, 2012; active = falling curve of any shape with a large fitted effect; inconclusive = falling curve, mostly with a smaller effect; inactive = flat or rising curve; cell line not stated here;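 also: intracellular cAMP measured with PDE inhibitor Ro 20-1724 present during compound exposure; potency is read from the fitted curve at half-maximal effect; % is scaled to controls: 0 for no effect and ±100 for the full control effect; nearly all actives have a fitted effect of over 65% in size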
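HTRF cAMP read-out (cAMP-d2 plus anti-cAMP antibody-K in lysis buffer, 30 min RT). Before lysis, cells are exposed to compounds with […] for 30 min at 37C in DPBS containing Ca/Mg, BSA and Tween 20.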
Sfp inh = qHTS Assay for Inhibitors of Bacillus subtilis Sfp phosphopantetheinyl transferase (PPTase). Biochemical Sfp PPTase activity, qHTS. Potency, µM, without a hit: max response, negative = inhibition, hits mostly inhibitors. 3.5% of 310,000 active; active = well fitted inhibition curve with a large enough effect; inconclusive = small, poorly fitted or top-dose-only effect, or another doubt; inactive = no such curve, though single readings can be large or run the other way;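 also: the enzyme is Sfp with the accession as filed and its product quenches rhodamine fluorescence; potency is read from the fitted curve at half-maximal effect; 0% = enzyme reaction without inhibitor and -100% = no enzyme wells; top concentration of the series not given in the record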
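Buffer: 50 mM Hepes-Na pH 7.6, 10 mM MgCl2, 0.01% Nonidet P-40, 0.01% BSA. Enzyme 15 nM, pre-exposed to compound 15 min; substrates then added and fluorescence change tracked over 30 min.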
TRPV1 PAM = HTS Assay for Compounds that Act as Potentiators of the Vanilloid Receptor 1. TRPV1-expressing cells, Fluo-8 calcium influx, capsaicin EC20 potentiation; host cell line not named in the record; control for the full effect not named in the record. 0.02% of 320,000 active. Transient receptor potential cation channel subfamily V member 1 (Homo sapiens), Q8NER1. potentiation, % at 8.33 µM. AID 540277, 2011; active means potentiation above 80%; inconclusive means 30% to 80%; inactive means below 30%; also: 0% is about no effect
Target sequence (Q8NER1 whole entry, looked up): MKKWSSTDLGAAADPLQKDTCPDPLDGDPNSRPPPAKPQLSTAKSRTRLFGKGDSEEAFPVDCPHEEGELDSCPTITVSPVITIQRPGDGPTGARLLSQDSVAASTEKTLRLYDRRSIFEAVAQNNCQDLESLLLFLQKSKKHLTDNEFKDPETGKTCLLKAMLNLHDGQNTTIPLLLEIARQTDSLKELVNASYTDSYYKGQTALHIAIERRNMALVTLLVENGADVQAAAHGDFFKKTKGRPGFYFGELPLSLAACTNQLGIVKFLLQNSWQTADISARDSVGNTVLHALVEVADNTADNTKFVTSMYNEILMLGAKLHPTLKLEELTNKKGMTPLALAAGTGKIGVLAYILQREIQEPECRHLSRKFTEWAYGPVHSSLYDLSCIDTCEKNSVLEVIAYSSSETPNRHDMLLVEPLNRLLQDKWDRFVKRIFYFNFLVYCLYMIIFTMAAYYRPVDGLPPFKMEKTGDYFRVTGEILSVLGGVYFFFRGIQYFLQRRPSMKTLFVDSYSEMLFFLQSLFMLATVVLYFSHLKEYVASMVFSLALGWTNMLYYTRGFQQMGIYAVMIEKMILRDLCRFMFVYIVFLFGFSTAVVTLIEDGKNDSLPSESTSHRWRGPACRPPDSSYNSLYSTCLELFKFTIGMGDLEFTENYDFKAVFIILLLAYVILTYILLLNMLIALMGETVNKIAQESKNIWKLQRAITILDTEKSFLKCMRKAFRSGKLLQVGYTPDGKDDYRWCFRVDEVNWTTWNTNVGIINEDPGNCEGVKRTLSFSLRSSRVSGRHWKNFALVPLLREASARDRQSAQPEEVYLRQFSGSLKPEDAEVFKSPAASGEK
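Fluo-8 calcium influx in TRPV1-expressing cells, kinetic read (ex 480/em 520 nm). Compound added and read 3 min for agonist activity, followed by capsaicin at EC20 final and 2 min further read for enhancement.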
TRPML1 inh = qHTS for Inhibitors of the Human Mucolipin Transient Receptor Potential 1 (TRPML1) | Mucolipin-1 (Homo sapiens), Q9GZU1 | TRPML1-inducible cells, Ca2+ dye fluorescence, FDSS; active compounds read low; inhibition of EC80 agonist-evoked calcium signal | activity change, negative = inhibition, % (no concentration beside the values) | 0.02% of 390,000 active | AID 624415, 2012; in the data active means activity change below about -50%; inconclusive means about -30% to -50%; inactive means above about -30%;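 also: stimulus is agonist 54-4 at its EC80 concentration; % is scaled to controls: 0 for no effect and ±100 for the full control effect; compound concentration not given in the record; the text of the record puts the active cut at -80%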
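Tet-induced TRPML1-DL cells loaded with Ca8 no-wash calcium dye were read kinetically on FDSS. Compound addition was followed by EC80 agonist 54-4 (4 uM final); inhibition was read over 110 s.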
The depositor's hits bear a star; ? = inconclusive; · = not tested or not shown; [ ] = another dose, or the depositor's remark.

Every second line gives: gsp ag	ClpP mod	Menin-MLL FL inh	gsp antagonist	Sfp inh	TRPV1 PAM	TRPML1 inh
> CC(C)(CNC(=O)CNC(=O)c1ccccc1F)N1CCOCC1
  -13%	-1.3%	·	14%	·	-3	15
> CCOC(=O)c1c(C)nc2sc(C(=O)Nc3ccc(C(C)=O)cc3)c(N)c2c1-c1ccc(OC)cc1
  ?	-9.3%	1.5	-12%	8%	-9	-5
> COCCNC(=O)c1ccc(NC(C)=O)cc1
  ?	1.0%	-1.0	5%	10%	8	6
> COc1ccc(C2CC(c3ccco3)n3ncnc3N2)cc1 (configuration not stated)
  -24%	-4.0%	9.0	5%	18%	2	-5
> CN(CC(=O)Nc1ccc(F)cc1)C(=O)CSc1nnc(Cc2ccccc2)o1
  ?	0.4%	·	3%	·	·	-7
> O=C(COc1ncnc2cc(Cl)ccc12)c1ccccc1
  ?	0.3%	2.3	3%	0%	-4	3
> CC1(C)CC(=O)c2c(noc2-c2ccccc2)C1
  -6%	-0.7%	-0.8	6%	4%	12	-6
> COc1ccc(NC(=O)CSCC(=O)Nc2ccc(S(=O)(=O)N3CCCC3)cc2)cc1
  -3%	-0.7%	·	-6%	11%	2	-10
> CC(=O)Nc1ccc(C(=O)OCC(=O)NCc2ccc(Cl)cc2)cc1
  ·	·	-4.1	·	11%	0	·
> N#CC1(C#N)CC(C=O)=C(N)C1(C#N)CC(=O)C12CC3CC(CC(C3)C1)C2 (configuration not stated)
  -22%	-0.7%	7.9	-5%	22%	6	27
> COCCCNC(=O)c1cc2c(s1)CS(=O)(=O)C2
  -59%[inhibitor]	-1.4%	-2.5	9%	5%	0	-2
> CCOC(=O)C1CCCN(C(=O)c2cccc3ccccc23)C1 (configuration not stated)
  9%	·	-1.0	-3%	6%	8	4
> O=C1C=C(c2cccc(Cl)c2O)C[C@@H](c2ccc(Cl)cc2)C1
  ·	-4.1%	·	-17%	·	0	13
> Cc1cc(C)c2c(-n3cccc3)n[nH]c2n1
  2%	-5.3%	0.8	7%	15%	-9	-15
> Cc1nnc(N/N=C\c2ccc(-c3cccc(C(=O)O)c3)o2)n1N
  -15%	4.5%	-6.4	-14%	-71%	6	8
> Cc1ccc(C(=O)Nc2ccc3c(c2)nc(CCNC(=O)c2ccco2)n3C)cc1
  6%[15.4 µM]	-0.1%	-0.3	7%	5%	-24	-10
> CCc1nnc(NS(=O)(=O)c2ccc(NC(=O)/C=C/c3ccccc3Cl)cc2)s1
  1%[15.4 µM]	·	1.7	·	21%	-1	4
> COc1ccc(C)c2sc(NC(=O)C3CC3)nc12
  -57%[inhibitor]	-16%	-6.5	8%	-10%	-19	13
> COc1cc(CN2CCCN(C)CC2)c([N+](=O)[O-])cc1OC
  -7%	·	2.1	-6%	5%	-4	-10
> CNc1ccc(Oc2c(F)c(F)nc(F)c2F)cc1
  26%	1.6%	8.5	-1%	15%	2	·

Continued; it opens with the 4 that closed the last part.
Every second line gives: gsp ag	ClpP mod	Menin-MLL FL inh	gsp antagonist	Sfp inh	TRPV1 PAM	TRPML1 inh
> CCc1nnc(NS(=O)(=O)c2ccc(NC(=O)/C=C/c3ccccc3Cl)cc2)s1
  1%[15.4 µM]	·	1.7	·	21%	-1	4
> COc1ccc(C)c2sc(NC(=O)C3CC3)nc12
  -57%[inhibitor]	-16%	-6.5	8%	-10%	-19	13
> COc1cc(CN2CCCN(C)CC2)c([N+](=O)[O-])cc1OC
  -7%	·	2.1	-6%	5%	-4	-10
> CNc1ccc(Oc2c(F)c(F)nc(F)c2F)cc1
  26%	1.6%	8.5	-1%	15%	2	·
> COc1cc(NC(=O)c2cc3ccccc3cc2O)c(OC)cc1Cl
  ?	13%	?	20µM*	13%	17	1
> O=C(c1ccccc1)N1CCN(c2ncccn2)CC1
  5%	-6.3%	3.5	-4%	21%	-1	1
> O=C(COC(=O)/C=C/c1ccc([N+](=O)[O-])cc1)Nc1ccc(F)cc1
  14%	1.2%	·	6%	·	-11	-5
> CCOC(=O)c1nn(-c2ccc(F)cc2)c(=O)cc1OCC(=O)Nc1cccc(C)c1
  4%[15.4 µM]	·	·	2%	·	-1	-4
> COC(=O)N/N=C/c1cn(Cc2ccccc2Cl)c2ccccc12
  -50%[inhibitor]	-0.4%	0.5	3%	0%	9	-8
> CC(C(=O)O)n1nnc2ccccc21 (configuration not stated)
  -23%[15.4 µM]	·	5.9	6%	-1%	3	-5
> O=S(=O)(NCc1ccc2c(c1)OCO2)c1cccc(F)c1
  14%[15.4 µM]	28µM*	-8.0	-6%	4%	-17	23
> CCCc1nc2ccccc2[nH]1
  11%	1.3%	2.3	9%	3%	2	19
> COc1cc2cc(CN(Cc3cccs3)C(=S)Nc3ccccc3)c(=O)[nH]c2cc1OC
  4%	10µM*	-0.2	-6%	-9%	-7	16
> Cc1cc(C(=O)N2CCc3ccccc3C2)on1
  -42%[inhibitor]	-2.5%	-0.2	-4%	13%	-6	-9
> CCC(c1nnnn1Cc1ccco1)N(Cc1cc2cc(C)cc(C)c2[nH]c1=O)CC1CCCO1 (configuration not stated)
  -26%	?	20	-12%	22µM*	-3	-3
> CCc1ccc(OCC(=O)Nc2ccc(-c3nc4ccccc4o3)c(O)c2)cc1
  -1%	-29%	-0.2	-3%	21%	10	4
> O=C(c1cc2ccccc2o1)N1CCN(S(=O)(=O)c2c(F)cccc2F)CC1
  0%	-0.5%	·	-15%	·	4	23
> CN(C)S(=O)(=O)c1ccc(NC(=O)/C=C/c2ccccc2Cl)cc1
  3%[15.4 µM]	-5.7%	0.9	?	-1%	-5	12
> O=C(CC1C(=O)NCCN1Cc1cccc(F)c1)NC1CCC1 (configuration not stated)
  ?	-8.0%	-9.2	-11%	16%	0	37
> N#Cc1ccccc1OCC(=O)Nc1cc(S(=O)(=O)N2CCCCC2)ccc1N1CCOCC1
  -4%	?	·	-2%	·	·	32
> CC(=O)C1=C(C)Nc2ncnn2C1c1ccccc1Cl (configuration not stated)
  -2%	-0.5%	3.4	1%	17%	2	14
> C=C(C)[C@@H]1CC=C(CO)CC1
  ·	-1.2%	·	8%	·	·	-8
> Cc1ccccc1Nc1nc(N)nc(-c2oc3ccccc3c2C)n1
  -6%[15.4 µM]	·	4.5	9%	-5%	·	-6
> C=CCNC(=S)N(Cc1ccccc1)Cc1ccccc1
  ?	·	-3.7	2%	21%	-3	-23
> CC(Sc1nnc(N)s1)C(=O)NNC(=O)c1cccc(Cl)c1 (configuration not stated)
  3%[15.4 µM]	1.2%	·	11%	·	·	-7
> CN1CCC(=O)N([C@H](CSc2ccc(Br)cc2)c2ccccc2)CC1
  ·	-4.1%	-2.4	2%	6%	7	-2
> COc1ccc2cc(S(=O)(=O)N3CCOCC3)ccc2c1
  -2%	?	1.9	9%	3%	0	0
> Cc1ccc(-n2nc(C)c(C(=O)Nc3cccc(C(=O)NC4CC4)c3)n2)c(C)c1
  ?	-7.7%	·	-17%	·	9	-7
> CC(=O)Nc1cccc(NC(=O)c2ccco2)c1
  8%	0.4%	-1.2	-5%	7%	7	38
> Clc1ccccc1Cc1noc(CN2CCCCC2CCc2ccccn2)n1 (configuration not stated)
  9%	·	6.7	-6%	0%	-29	-13
> CCOc1ccc(S(=O)(=O)N2CCN=C2Cc2ccccc2)cc1C
  -17%	0.0%	·	5%	4%	-10	-18
> O=C(CSc1ncn[nH]1)N1N=C2/C(=C/c3ccco3)CCCC2C1c1ccco1 (configuration not stated)
  ?	-5.8%	1.7	-13%	-20%	1	39
> CCCSc1nc(C)cc(=O)[nH]1
  -2%	0.6%	1.2	-3%	9%	-15	7
> COC(=O)[C@@]1(Cc2ccc(F)cc2)[C@H]2c3cc(C(=O)N4CCCC4)n(Cc4ccc(C)o4)c3C[C@H]2CN1C(=O)c1ccccc1
  ·	-3.9%	7.0	·	40µM*	·	·
> Nc1nnc(SCC(=O)OCC(=O)NC23CC4CC(CC(C4)C2)C3)s1
  -2%[15.4 µM]	·	-3.2	-13%	16%	0	0
> O=C1c2ccccc2NC(c2ccc(O)cc2)N1/N=C/c1ccc(O)cc1 (configuration not stated)
  8%	-0.3%	3.9	-10%	22%	-1	-4
> CCOc1ccc(S(=O)(=O)NCc2ccccn2)cc1NC(=O)c1ccccc1
  -4%[15.4 µM]	·	·	22%	·	17	4
> Cn1c(COc2ccc(C(=O)O)cc2)nc2ccccc21
  -20%	3.1%	-1.9	1%	8%	6	-7
> Cc1cc(OCC(=O)N(C)C)c2c(-c3ccccc3)cc(=O)oc2c1
  -4%	-9.4%	-2.6	-1%	10%	-14	17
> CCc1ccc(Nc2ccc(C(N)=O)cc2[N+](=O)[O-])cc1
  22%	0.4%	2.1	?	-3%	-4	0
> Cc1ccc(N2C(=O)CC(Sc3ccccc3C(=O)O)C2=O)c([N+](=O)[O-])c1 (configuration not stated)
  -16%	·	2.2	-7%	7.1µM*	4	17
> Cc1oc(-c2ccccc2Cl)nc1CN(C)C(C)c1ccon1 (configuration not stated)
  -8%[15.4 µM]	·	-3.1	11%	-1%	24	8
> COc1cc2c(C(=O)NCc3ccccn3)cn(CC(C)C)c(=O)c2cc1OC
  ?	?	0.5	4%	16%	-6	-17
